# From PubChem
# Mtb MenB inh = M. tuberculosis MenB inhibitors, primary screen, biochemical, absorbance | 1,4-dihydroxy-2-naphthoyl-CoA synthase (Mycobacterium tuberculosis (strain ATCC 25618 / … | MenB enzyme assay, absorbance read-out; some hits fall short of the stated cut | inhibition, %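 (about 12 µg/mL by stock and volumes)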 | 100,000 tested, 0.43% active | AID 540299, 2011;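 active = mean of two replicates above 30%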;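 also: 0% = no compound and 100% = wells with inactive enzyme; the first replicate is given; strong numbers were not always called active; inactives centre near -10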
# Target sequence (P9WNP5 whole entry, looked up): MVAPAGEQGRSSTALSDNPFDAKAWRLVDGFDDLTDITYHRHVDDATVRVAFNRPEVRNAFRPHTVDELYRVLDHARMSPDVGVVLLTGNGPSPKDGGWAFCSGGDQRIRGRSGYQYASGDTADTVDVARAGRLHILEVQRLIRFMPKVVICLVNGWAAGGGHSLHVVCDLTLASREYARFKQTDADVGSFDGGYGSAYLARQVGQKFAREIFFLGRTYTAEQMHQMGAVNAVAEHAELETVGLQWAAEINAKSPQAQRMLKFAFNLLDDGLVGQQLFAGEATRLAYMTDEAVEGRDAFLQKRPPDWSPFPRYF
# PV pol inh = poliovirus RdRp elongation inhibitors, primary screen, biochemical, fluorescence polarization, total intensity; poliovirus polymerase elongation; stronger effect = lower value; 150,000 tested, 0.66% active; AID 588519, 2011; % elongation, % (compound at 16.7 µg/mL); in the data active = % elongation below about 90%; also: some results filed as inactive read as strong as hits
# MbtI inh = MbtI salicylate synthase inhibitors, primary screen, biochemical, fluorescence intensity | P9WFX0 | purified MbtI enzyme, fluorescence intensity read-out | inhibition, %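 (about 17 µg/mL by stock and volumes)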 | 100,000 tested, 0.89% active;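 active = above 50% in both replicates, above 80% if mildly self-fluorescent; inactive = the rest, strongly fluorescent compounds included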;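 also: 0% = mean of negative and 100% = mean of positive controls; one replicate is shown; some compounds called inactive have numbers as strong as hits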
# Target sequence (P9WFX0 whole entry, looked up): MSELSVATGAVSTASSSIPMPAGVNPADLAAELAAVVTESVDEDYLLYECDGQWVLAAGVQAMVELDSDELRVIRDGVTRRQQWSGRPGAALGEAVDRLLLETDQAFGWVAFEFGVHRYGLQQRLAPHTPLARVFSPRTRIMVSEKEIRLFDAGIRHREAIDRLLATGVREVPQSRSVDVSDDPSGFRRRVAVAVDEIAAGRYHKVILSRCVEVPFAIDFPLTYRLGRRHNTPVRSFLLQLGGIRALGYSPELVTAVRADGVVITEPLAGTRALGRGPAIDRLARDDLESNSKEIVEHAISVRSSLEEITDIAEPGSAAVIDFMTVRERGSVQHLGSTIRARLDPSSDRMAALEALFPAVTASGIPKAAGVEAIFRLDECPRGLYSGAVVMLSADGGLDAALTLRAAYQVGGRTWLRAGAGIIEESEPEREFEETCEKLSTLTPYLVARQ
# PV pol inh intensity = also measured in PV pol inh; calls as there; % elongation; measured here: total intensity read-out; formula for this scale not given here;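 total fluorescence in place of polarization; lower means less elongation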
# Starred values were filed as active, the others as inactive; i = inactive; . = no result given.
SMILES,Mtb MenB inh,PV pol inh,PV pol inh intensity,MbtI inh
COc1ccc(S(=O)(=O)N2CCN(c3ccc(F)cc3)CC2)cc1C(=O)N1CCOCC1,-2,102,102,-4
O=C(CNc1ccc(Cl)cc1F)N1CCc2ccccc21,-31,99,103,-15
CC(O)CNc1nc2ccccc2n1-c1ncnc2sc3c(c12)CCC3 (stereo not drawn),0,98,102,15
COC(Cn1c(-c2ccc(C)cc2)n[nH]c1=S)OC,-8,100,102,18
Cc1nnc(Sc2cc(C(=O)NCCN3CCOCC3)c3ccccc3n2)s1,-1,100,103,-18
O=C1CCN(C(=O)c2ccc(Cl)cc2)c2ccccc21,-4,100,105,1
CCN(CC)c1ccc(NC(=O)c2ccc(Cl)cc2)c(N(CC)CC)n1,0,106,122,-16
COc1ccc(C2=NOC(C(=O)NCc3ccco3)C2)cc1 (stereo not drawn),-24,103,101,-11
CCN(CCO)C(=O)CC(c1ccccc1)c1cc(Br)ccc1O (stereo not drawn),12,100,102,-16
CCc1ccc2[nH]c(C)c(CN(C)C)c(=O)c2c1,9,103,100,16
O=C(Cc1n[nH]c(=O)c2ccccc12)N1CCCSc2ccccc21,-38,98,103,-4
O=C(O)CCC(=O)N1CCN(c2ccc(Nc3ccccc3)nn2)CC1,-7,105,102,-3
COc1ccc(-c2noc(-c3cc4ccccc4o/c3=N\NS(=O)(=O)c3ccc(C)cc3)n2)cc1,-10,100,101,-12
CC(C)N(C(=O)COc1ccc2ccccc2c1)C(C)C,0,97,102,-10
OC1CCCN(CC(O)COc2c(Cl)cccc2Cl)C1 (stereo not drawn),3,100,97,-13
CC(=O)Nc1ccc2[nH]c(C)cc(=O)c2c1,-9,101,101,88
CC(=O)OCC(CCn1cnc2cnc(N)nc21)COC(C)=O,-1,101,103,108
Cc1ccc2[nH]c(C)c(CCC(=O)O)c(=O)c2c1,-27,103,104,90
Cc1ccc(C)c2[nH]c(=O)c(CCNC(=O)c3ccc(S(=O)(=O)N(C)C)cc3)cc12,2,99,100,5
CC(=O)N1c2ccc(S(=O)(=O)N3CCCC3C(=O)N3CCn4c3nc3ccccc34)cc2CC1C (stereo not drawn),-21,102,105,-28
O=C(NCC1CCCO1)c1ccc(Br)cc1 (stereo not drawn),-10,102,107,-6
CCn1c2ccccc2c2cc(CN3CCN(c4ccccn4)CC3)ccc21,-78,100,102,-50
CCN(CC)CCN1C(=O)C(=O)/C(=C(/O)c2ccc3c(c2)CC(C)O3)C1c1ccc(F)cc1 (stereo not drawn),-15,101,101,-23
Cc1ccc(C2Nc3ccccc3NC3=C2C(=O)CC(C)(C)C3)o1 (stereo not drawn),-37,96,109,18
CN(C(=O)c1ccc2c(=O)n3c(nc2c1)CCCCC3)c1cccc(Cl)c1,12,101,100,-4
CC(=O)Nc1ccc(S(=O)(=O)NN2C(=O)/C(=C/c3ccco3)N=C2c2ccccc2)cc1C(=O)O,-15,100,111,.
Cn1c(=O)c2c(ncn2Cc2ccccc2)n(C)c1=O,0,99,102,-4
O=C(CSc1n[nH]c(=O)n1C1CC1)c1ccc(N2CCOCC2)cc1,2,104,113,-1
C[C@@H](C(=O)NC1=NCCS1)N1C(=O)C2CC=CCC2C1=O (stereo partly drawn),2,106,108,-13
O=C(Nc1ccno1)NN1CCOCC1,-12,108,115,-6
O=C(O)CC1Nc2ccccc2NC1=O (stereo not drawn),-11,119,125,.
NS(=O)(=O)c1ccc(CNC(=O)/C=C/c2ccc3c(c2)OCO3)cc1,9,103,106,0
O=C1NC(=S)N/C1=C/C=C/c1ccccc1,-43,104,105,-6
CC(C)CCNc1cc(C(C)C)c(C#N)c2nc3ccccc3n12,-42,104,98,i
Cc1cc(C(=O)COC(=O)C(C)N=C2NS(=O)(=O)c3ccccc32)c(C)n1C1CC1 (stereo not drawn),-9,104,105,-6
COCCc1nnc(CCOC)n1N,7,105,94,.

# Looked up by compound from the entries so far:
SMILES,Mtb MenB inh,PV pol inh,PV pol inh intensity,MbtI inh
COCCc1nnc(CCOC)n1N,7,105,94,.
O=C(CSc1n[nH]c(=O)n1C1CC1)c1ccc(N2CCOCC2)cc1,2,104,113,-1
CN(C(=O)c1ccc2c(=O)n3c(nc2c1)CCCCC3)c1cccc(Cl)c1,12,101,100,-4
O=C(Nc1ccno1)NN1CCOCC1,-12,108,115,-6
O=C(O)CC1Nc2ccccc2NC1=O (stereo not drawn),-11,119,125,.
C[C@@H](C(=O)NC1=NCCS1)N1C(=O)C2CC=CCC2C1=O (stereo partly drawn),2,106,108,-13
O=C1NC(=S)N/C1=C/C=C/c1ccccc1,-43,104,105,-6

# Further results.
SMILES,Mtb MenB inh,PV pol inh,PV pol inh intensity,MbtI inh
CCCn1c(=O)c(C(=O)NC23CC4CC(CC(C4)C2)C3)c(O)c2ccccc21,-12,103,105,-2
CCOC(=O)C1CCC(CNCc2ccc(Cl)cc2)CC1 (stereo not drawn),8,103,104,12
O=C(/C=C(\O)c1ccccc1)C(=O)NCc1ccccc1,-31,98,103,40
Cc1ccc2oc(=O)c(-c3nc4ccccc4s3)cc2c1,-6,103,93,8
COc1ccc(CC(=O)N2N=C(C(F)(F)F)CC2(O)C(C)(C)C)cc1 (stereo not drawn),-18,101,100,-2
C=CCSc1nnnn1-c1ccc(OC)cc1,-8,102,103,-10
CN1CCN(c2nc3c(c(=O)[nH]2)CCCC3)CC1,0,105,111,.
O=C(Nc1nc(-c2cccs2)cs1)c1cc(Cl)sc1Cl,-28,99,102,73
CCCn1c(O)c(N=NC(=S)Nc2cccc(OC)c2)c2ccccc21,-18,100,100,-15
Cc1ccc(SC(C)C(=O)Nc2ccc(N(C)C)cc2)cc1 (stereo not drawn),-112,99,103,5
CNC(=O)COc1c(C)c(C)cc(C)c1C,-9,101,102,-12
CC(=O)N1CCc2cc(N=Nc3c(N)[nH]n(-c4ccccc4)c3=O)ccc21,-26,102,101,-10
CCOC(=O)c1cc(-c2ccccc2)no1,-33,102,104,-9
Cc1cccc(N2CCN(C(=O)NC3CCCCC3)CC2C)c1 (stereo not drawn),-7,103,103,-8
CSc1ncc(Br)c(C(=O)O)n1,-22,105,102,-1
COc1ccc(-n2cnc3cc(NS(=O)(=O)c4ccccc4)ccc32)cc1,-52,101,102,-56
O=C(c1cc(=O)[nH]c2ccccc12)N1CCN(Cc2ccc3c(c2)OCO3)CC1,-11,103,107,3
CC1Cc2ccccc2N1C(=O)COC(=O)c1ccc(Cl)c(N)c1 (stereo not drawn),.,102,102,-24
C/C(CCc1ccc2c(c1)OCO2)=N\NC(=O)c1ccccc1,-15,106,107,-2
CC12C(=O)N(CCC3=CCCCC3)C(=O)C1C(c1ccccc1)C=CC2c1ccccc1 (stereo not drawn),2,109,110,.
O=C(/C=C1/Nc2ccccc2NC1=O)Nc1cccc(C(F)(F)F)c1,-4,106,105,-27
O=C(Nc1sc2c(c1C(=O)NCc1cccnc1)CCC2)c1cccs1,-11,105,104,-15
Cc1nc(COC(=O)c2ccc3c(c2)S(=O)(=O)c2ccccc2C3=O)cs1,-10,103,104,-6
COc1cc2c(C)nc(C)c(C#N)c2cc1OC,17,101,100,42

# Complete entries from above:
# `O=C(Nc1sc2c(c1C(=O)NCc1cccnc1)CCC2)c1cccs1` is listed as Mtb MenB inh = -11; PV pol inh = 105; PV pol inh intensity = 104; MbtI inh = -15
# `Cc1nc(COC(=O)c2ccc3c(c2)S(=O)(=O)c2ccccc2C3=O)cs1` is listed as Mtb MenB inh = -10; PV pol inh = 103; PV pol inh intensity = 104; MbtI inh = -6

# Carrying on.
SMILES,Mtb MenB inh,PV pol inh,PV pol inh intensity,MbtI inh
CC(=O)NC1C(Oc2ccccc2)OC2COC(c3ccccc3)OC2C1O (stereo not drawn),14,105,101,0
Cc1nn(S(=O)c2ccc3ccccc3c2)c(C)c1Sc1ccc(Cl)cc1 (stereo not drawn),-7,99,103,12
COc1ccc(CCNc2ncnc3sc4c(c23)CCCC4)cc1,-11,97,95,4
CCOC(=O)c1c(N)sc2c1CCC(Sc1ccccc1)C2=O (stereo not drawn),-10,111,107,.
Cc1ccc(C)c(C(=O)OCC(=O)NC2CC2)c1,-4,101,104,16
O=c1c2ccccc2nc(SCc2ccc(F)cc2)n1-c1ccccc1,-52,101,102,.
COC(=O)CSc1nnnn1-c1ccc(C(=O)OC)cc1,-15,103,107,-101
Cc1ccc(N2C(=O)N(Cc3cc(=O)oc4cc(C)ccc34)C(=O)C2C)cc1 (stereo not drawn),-2,105,112,2
Cc1cccc2sc(NC(=O)c3ccc(COc4ccc5ccccc5c4)o3)nc12,4,104,99,110
O=C1SC(SCc2ccccc2)=N/C1=C\c1ccco1,-82,101,105,4
COC(=O)CNc1cccc(C(F)(F)F)c1,10,100,100,-23
Cc1cc(NC(=O)NC(C)(C)C)no1,-11,100,100,.
FC(F)n1nnn(-c2ccccc2)c1=S,-2,106,102,-9
CC1CCC(Nc2ccc(S(=O)(=O)N3CCOCC3)cn2)CC1 (stereo not drawn),-25,108,121,9
CN(Cc1ccco1)C(=O)c1c[nH]c2ccc(S(=O)(=O)Nc3ccccc3F)cc2c1=O,2,99,103,-4
CCN=C1SC(C(N)=O)CC(=O)N1CC (stereo not drawn),8,98,105,.
NC(=O)NC(=O)Cn1ncc(Cl)c(Cl)c1=O,-14,95,90,-1
Cn1c(=O)c(=O)[nH]c2c(=O)oc3ccccc3c21,-23,99,104,-12
CC(=O)N1c2ccc(S(=O)(=O)N(C)CC(=O)N3CCN(C4CCCCC4)CC3)cc2CC1C (stereo not drawn),-21,104,101,-11
N#CCC(=O)Nn1c(=S)[nH]c2ccccc2c1=O,3,101,104,4
Clc1cccc(C2NCc3ccccc3-n3cccc32)c1 (stereo not drawn),2,98,91,.
O=c1cccc2n1CC1CC2CN(c2ncnc3c2cnn3-c2ccc(Cl)cc2)C1 (stereo not drawn),-43,100,100,7
COC(=O)c1ccc(CSCC(=O)Nc2ccc(C)c(C)c2)o1,-2,100,103,-4
O=C(Nc1ccccc1)C1CC2CCC1C2 (stereo not drawn),-17,98,99,4

# Part of the list above in order of heavy-atom count, low to high:
SMILES,Mtb MenB inh,PV pol inh,PV pol inh intensity,MbtI inh
Cn1c(=O)c(=O)[nH]c2c(=O)oc3ccccc3c21,-23,99,104,-12
Clc1cccc(C2NCc3ccccc3-n3cccc32)c1 (stereo not drawn),2,98,91,.
O=c1cccc2n1CC1CC2CN(c2ncnc3c2cnn3-c2ccc(Cl)cc2)C1 (stereo not drawn),-43,100,100,7

# (next part)
SMILES,Mtb MenB inh,PV pol inh,PV pol inh intensity,MbtI inh
N#Cc1c(-c2ccco2)cc(C2CC2)nc1SCC(=O)c1ccc(Br)cc1,0,101,100,-6
O=C(Nc1ccncc1)c1cc2c(s1)CCC2,.,103,105,-6
COc1ccccc1Oc1ccccc1C(=O)N1CCCCCC1,-22,106,103,-10
NC(=O)c1cccc2ccccc12,.,97,95,26
CCCNC(=O)Cn1ncc2c([nH]c3ccccc32)c1=O,-31,103,103,113
COc1ccc(-n2c(N)cc(=O)[nH]c2=O)cc1,-15,102,106,-3
Cc1[nH]c2ccc(C(=O)Nc3ccccc3F)cc2c1C,7,102,109,-189
COc1ccc(S(=O)(=O)N(CC(=O)Nc2ccc3c(c2)OCO3)c2ccccc2)cc1,-45,100,104,-14
Cc1ccc(NCc2ccc3c(c2)OCO3)cc1,-42,103,98,-9
Cc1cc(-c2ccccc2)nc2c1/C(=N\O)CC(C)(C)C2,-13,107,107,2
O=C(CN1C(=O)c2ccccc2S1(=O)=O)NC1CCCC1,-18,101,103,-7
CC(=O)N(C1=C(O)c2ccccc2C(=O)C1=O)c1ccccc1,-54,94,88,4
COc1ccc(N2CCN(C(=O)CNC(=O)c3ccccc3)CC2)cc1,5,101,103,-19
COc1ccc(-c2onc(C(F)(F)F)c2-c2cnn(-c3ccccc3)c2)c(O)c1,-23,99,104,11
COCCn1c(C)cc(C(=O)CSc2nnc(Nc3ccccc3C)s2)c1C,-45,104,97,3
CC(=O)NCc1ccc(S(=O)(=O)N(C)C)cc1,0,103,103,-5
O=C(NCc1csc(-c2cccs2)n1)Nc1ccc2c(c1)OCCCO2,-12,100,100,-57
CC(C)c1ccc(C2C3CCc4ccccc4C3=NN2CCO)cc1 (stereo not drawn),-23,102,98,-33
Cc1cc(Oc2ccc(C(F)(F)F)cc2-n2cccc2)cc(C)c1Cl,-15,109,111,-2
Cc1ccc(NC(=O)O/N=C/c2c(C)nn(C(C)(C)C)c2C)cc1Cl,10,103,100,0
CCN1CCN(CCNC(=O)c2cc(-c3ccccn3)nc3ccccc23)CC1,10,99,104,11
O=c1[nH]nc(Sc2ncnc3sccc23)n1CCc1ccccc1,-7,102,107,15
O=C(NCCc1ccccc1)C1=CCN(S(=O)(=O)c2ccccc2)CC1,2,104,108,-6
CCN1CCN(C(C)C(=O)Nc2ncc(C)s2)CC1 (stereo not drawn),2,101,103,2
CCOC(=O)c1cnn(CCOC(=O)c2ccc(C)cc2)c1NC(=O)c1ccc(C)cc1,-9,100,99,-20
CCN(CC)CCOc1cc(C)cc(C)c1,-10,98,98,-22
Cc1ccc(-c2csc(-c3nnn(-c4cccc(Cl)c4)c3N)n2)cc1,16,100,93,20
OCc1nc2ccc(-c3ccc4nc(CO)[nH]c4c3)cc2[nH]1,-12,103,103,88
CCCC1=NN(c2cccc(C(=O)O)c2)C(=O)C1,-5,99,102,-3
